Screening data deposited in PubChem by several laboratories.
RN4220 kill: kills Staphylococcus aureus RN4220; S. aureus RN4220 growth, OD600, 16 h; AID 1259311; hit rate 0.33% among 330,000; inhibition, % (no concentration beside the values);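 active = z-score of -3 or lower and OD600 up to 0.18 on both plates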;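 note: plate controls were untreated cells for no effect and reference antibiotic for full effect; stock transfer was 100 nL into about 80 µL; one replicate is shown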
ugtP null kill: compounds lethal to S. aureus RN4220 ugtP deletion mutant | OD600 growth, 16 h; some inactives read as strong as hits | growth inhibition, % (test concentration not listed) | hit rate 0.54% among 330,000;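 active = z-score under -3 and OD600 up to 0.15 on both plates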;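 note: plate controls were untreated wells for no effect and antibiotic for full effect; wells of about 80 µL received 100 nL stock; the first replicate is given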
BJeLR lethal: BJeLR cell viability loss; BJeLR (HRASV12) viability, CellTiter-Glo ATP luminescence, 48 h; reference of the scale not given here; inhibition, % (no concentration beside the values); hit rate 0.17% among 300,000;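 active = replicate mean above 50%; inconclusive = above 50% but judged a plate artefact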;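 note: 50 nL library stock added to about 25 µL; numbers are from one replicate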
Mtb hypoxia inh: inhibitors of hypoxia-regulated fluorescent reporter in Mycobacterium tuberculosis. M. tuberculosis hypoxia-regulated fluorescent reporter, fluorescence. fluorescence inhibition, % (concentration not given with the values). hit rate 0.1% among 300,000. AID 1159583;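 active = 35 to 45% if threefold the growth effect, above 45% if 1.5-fold the growth effect; inactive = the rest, general growth blockers included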;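 note: wells of about 50 µL received 100 nL stock; 0% = vehicle wells and 100% = reference inhibitor wells; whole bacteria with a GFP reporter of the hypoxia response; strong numbers were not always called active; many hits fall short of the cut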
PrP UTR inh: suppresses PrP 5' UTR mRNA reporter expression; cell-based PrP 5' UTR mRNA reporter, plate reader; hit rate 0.35% among 340,000; inhibition, % (test concentration not listed);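 active = every replicate at 50% or more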;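 note: 0 = median of the neutral control wells; tested in H4 reporter cells; numbers are from one replicate; inactives centre near -14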
Bead autofluor: counter-screen for toxin protease inhibitors: compound fluorescence. compound autofluorescence counterscreen, microsphere flow cytometry; active compounds read high. fluorescence intensity (no concentration beside the values). hit rate 3.1% among 360,000;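 active = at least 3 SD above the mean of all compounds, about 16000 in these data; inconclusive = too few beads counted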;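 note: 100 nL of 1 mM stock went into each well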
Mtb hypoxia inh growth: recorded beside Mtb hypoxia inh, whose call it bears; growth inhibition, %; measured here: M. tuberculosis growth (absorbance);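 0% = vehicle and 100% = reference antibiotic; read after six days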
* hit, by the source's call; ? = inconclusive; / = not tested or not shown.

SMILES	RN4220 kill	ugtP null kill	BJeLR lethal	Mtb hypoxia inh	Mtb hypoxia inh growth	PrP UTR inh	Bead autofluor
CC1CN(C(C)CO)C(=O)c2cc(NC(=O)CCC(F)(F)F)ccc2OC1CN(C)S(=O)(=O)c1ccccc1 (configuration not stated)	-1.3	-1	/	10	-3	/	/
CCN(Cc1ccccc1)C(=O)c1cc(S(=O)(=O)N2CCOCC2)ccc1N1CCCC1	2.8	6	0	3	-2	-6	/
CCc1nc2c(c(=O)c3ccccc3n2C)c(=O)n1C1CCCCCC1	3.5	-18	19	3	3	5	2117
CCN(CC)S(=O)(=O)c1cccc(-c2n[nH]c(=S)n2N=Cc2ccc(OC)cc2)c1	15	-7	/	13	6	/	/
CCCOc1ccc(C2C(C(=O)OC)=CN(CCOC)C=C2C(=O)OC)cc1	-1.1	15	1	-7	-7	-15	2768
N=c1c(C(=O)NCCN2CCOCC2)cc2c(=O)n3ccccc3nc2n1CCc1ccccc1	/	/	0	/	/	-19	6486
O=C(Nc1ccc(Cl)cc1C(=O)NCCN1CCOCC1)c1ccc(Cl)cc1Cl	-2.8	-12	-7	-10	11	-3	9187
CCOC(=O)CCc1c(C)c2c(C)nn(-c3ccccc3)c2[nH]c1=O	-2.0	9	-9	10	8	-9	4338
CN(Cc1ccccc1)C(=O)c1c[nH]c2ccc(S(=O)(=O)N3CCOCC3)cc2c1=O	1.9	12	-7	10	12	-38	2563
COCCNC(=O)COc1ccc(Br)cc1Cl	2.1	2	-4	/	/	-15	2459
Cc1ccc(S(=O)(=O)N(c2nc(N(C)C)nc(N(C)C)n2)n2cnnc2)cc1	94*	98*	-1	-10	0	-54	8677
CCC(C)NC(=O)c1ccc2nc(-c3ccc(OC)c(OC)c3)c(-c3ccc(OC)c(OC)c3)nc2c1 (configuration not stated)	4.9	1	-2	2	-3	4	3049
O=C(Nc1ccc(Oc2cccnc2)cc1)c1cccc([N+](=O)[O-])c1	1.2	-7	5	16	7	-26	7440
Cc1ccc(NC(=O)CSCC(=O)NCCc2ccccn2)c(C)c1	-1.3	12	1	9	9	-19	3180
CC(C)NC(=O)C(=O)NCCCN1CCOCC1	1.9	-1	3	-12	-5	-30	4992

Rewritten with values under each structure: entries from further up.
Every second line gives: RN4220 kill | ugtP null kill | BJeLR lethal | Mtb hypoxia inh | Mtb hypoxia inh growth | PrP UTR inh | Bead autofluor
CCc1nc2c(c(=O)c3ccccc3n2C)c(=O)n1C1CCCCCC1
    3.5 | -18 | 19 | 3 | 3 | 5 | 2117
CCN(CC)S(=O)(=O)c1cccc(-c2n[nH]c(=S)n2N=Cc2ccc(OC)cc2)c1
    15 | -7 | / | 13 | 6 | / | /
CCCOc1ccc(C2C(C(=O)OC)=CN(CCOC)C=C2C(=O)OC)cc1
    -1.1 | 15 | 1 | -7 | -7 | -15 | 2768
N=c1c(C(=O)NCCN2CCOCC2)cc2c(=O)n3ccccc3nc2n1CCc1ccccc1
    / | / | 0 | / | / | -19 | 6486
O=C(Nc1ccc(Cl)cc1C(=O)NCCN1CCOCC1)c1ccc(Cl)cc1Cl
    -2.8 | -12 | -7 | -10 | 11 | -3 | 9187

(more compounds)
SMILES	RN4220 kill	ugtP null kill	BJeLR lethal	Mtb hypoxia inh	Mtb hypoxia inh growth	PrP UTR inh	Bead autofluor
Cc1ccc(C(=O)/C=C/c2cc(Br)cc(Br)c2O)o1	/	/	8	/	/	-15	2764
N#Cc1ccc(C2=NC(C(F)(F)F)(C(F)(F)F)c3c(n(Cc4ccco4)c(=O)[nH]c3=O)N2)cc1	8.9	9	6	-3	13	-22	23851*
COc1ccc(N2Cc3ccccc3C2=NC(=O)c2cncc(Br)c2)cc1	4.5	0	/	7	9	-23	3805
CCOc1ccc(NC(=O)CN(C)C(=O)CSCc2cccc(C)c2)cc1OCC	-3.5	13	-4	1	12	-15	6152
Cc1c(NC(=O)CCC(=O)N2CCOCC2)c(=O)n(-c2ccccc2)n1C	0.2	3	-8	/	/	-4	4750
CCC(=NCCc1ccccc1)C1=C(O)CCC1=O	-1.0	0	0	/	/	-15	5295
COc1ccc(OCCNC(=O)c2ccccc2OCC(=O)N2CCCCC2)cc1	4.4	-8	-23	3	11	/	10762
O=C(NCCCc1ccccc1)c1c(O)nc2sccn2c1=O	13	13	0	14	7	-11	6856
CC(=O)c1ccc(S(=O)(=O)N2CCN(CC#N)CC2)cc1	2.5	4	2	-3	5	-7	3555
Cc1cc2cc(C)c3nnc(SCC(=O)N4CCCc5ccccc54)n3c2cc1C	4.2	-3	5	-2	5	/	/
O=C(Oc1ccc(/C=N/NC(=O)c2ccccn2)cc1)c1cccc(Br)c1	/	/	0	/	/	-42	5315
CC(=O)c1coc2ccc(OCCN3CCCCC3)cc12	4.1	8	1	5	1	-4	8167
Nn1c(SCC(=O)Nc2ccc(S(N)(=O)=O)cc2)nnc1C(F)(F)F	-0.3	7	-7	-5	7	-7	3567
O=C(N/N=C/C(Cl)=C/c1ccc([N+](=O)[O-])cc1)C(=O)Nc1ccccc1C(=O)O	/	/	-1	/	/	-10	6197
CC(=O)Nc1ccc(S(=O)(=O)N(C)CC(=O)OCCOc2cccc(C)c2)cc1	2.0	12	-14	-4	3	-17	5226
O=C(CCOc1ccccc1)Nc1ccccc1F	1.8	2	0	10	12	-3	3515
Cc1ccc2nc(NC(=O)CCn3cccc3)sc2c1	-6.0	1	6	0	10	-62	6004
COc1ccccc1C(=O)Nc1cccc(C(=O)c2ccccc2)c1	12	-3	-2	3	1	-12	4236
Cc1nn(Cc2ccccc2Cl)c(C)c1C(=O)NCC(c1cccs1)N1CCOCC1 (configuration not stated)	/	/	10	/	/	-9	6415
O=C(Nc1ccccn1)C1CCN(S(=O)(=O)c2cccs2)CC1	1.6	3	5	7	8	-16	9759
Cc1noc(C)c1C(=O)Nc1ccc(-c2nnc3n2CCCCC3)cc1	0.8	0	/	-11	3	-7	?
N#CCC(Cc1ccccc1)N1CCN(Cc2ccccc2)CCC1=O (configuration not stated)	4.6	6	/	9	18	/	/
Cc1cc(N2CCOCC2)nc2ccc(NC(=O)CCC(=O)N3CCN(c4ccccc4)CC3)cc12	5.2	9	-5	3	7	-28	2841
COc1ccc(N2CCN(C(=O)CSc3nc4cc(OC)c(OC)cc4cc3C#N)CC2)cc1	2.3	-6	8	/	/	-1	4955
Cc1cc(N(C)N=Cc2ccccc2O)nc(-c2ccccc2O)n1	-3.3	-22	/	-17	-9	/	/
O=C(c1cc2ccccc2oc1=O)N(Cc1cccc(Br)c1)C1CCS(=O)(=O)C1 (configuration not stated)	1.7	5	-4	5	2	-53	6054
COc1ccccc1OCC(=O)NC1CCCCCCC1	1.7	-5	/	7	21	-10	5317
O=C(NCCc1ccccc1)c1ccccc1NC(=O)C1CCCO1 (configuration not stated)	2.0	1	9	2	-1	17	2499
O=C(CCN1CCN(c2ccccc2)CC1)Nc1ccc(Cl)cc1	0.9	6	9	/	/	-10	4394
COC(=O)[C@]1(Cc2ccccc2)N[C@H](CN(C)C(=O)Nc2ccc(OC)cc2)[C@@H]2C(=O)N(Cc3ccccc3)C(=O)[C@@H]21	-1.0	-13	/	-4	4	-45	2950

Entries of single compounds as entered above. Order of values: RN4220 kill	ugtP null kill	BJeLR lethal	Mtb hypoxia inh	Mtb hypoxia inh growth	PrP UTR inh	Bead autofluor
Results for COC(=O)[C@]1(Cc2ccccc2)N[C@H](CN(C)C(=O)Nc2ccc(OC)cc2)[C@@H]2C(=O)N(Cc3ccccc3)C(=O)[C@@H]21 : -1.0	-13	/	-4	4	-45	2950
Results for Cc1noc(C)c1C(=O)Nc1ccc(-c2nnc3n2CCCCC3)cc1 : 0.8	0	/	-11	3	-7	?
Results for O=C(NCCc1ccccc1)c1ccccc1NC(=O)C1CCCO1 (configuration not stated) : 2.0	1	9	2	-1	17	2499
Results for Cc1ccc2nc(NC(=O)CCn3cccc3)sc2c1 : -6.0	1	6	0	10	-62	6004
Results for O=C(c1cc2ccccc2oc1=O)N(Cc1cccc(Br)c1)C1CCS(=O)(=O)C1 (configuration not stated) : 1.7	5	-4	5	2	-53	6054

(listing goes on)
SMILES	RN4220 kill	ugtP null kill	BJeLR lethal	Mtb hypoxia inh	Mtb hypoxia inh growth	PrP UTR inh	Bead autofluor
OC(COCCOc1ccc(Br)cc1)CN1CCCCC1 (configuration not stated)	3.1	5	7	17	3	-21	2212
O=[N+]([O-])c1ccc(-c2cn3ccccc3n2)cc1	0.7	-6	-3	3	-2	/	5985
CC(C)CC(COCc1ccc(C(F)(F)F)cc1)N1CCN(C(=O)c2ccc(C(F)(F)F)cc2)CCC1=O (configuration not stated)	5.3	20	-11	2	5	-10	4209
CCc1ccc(OC(=O)c2ccn(CC)n2)cc1	-19	-5	2	6	11	-19	2355
Cc1cccc(-n2c(SCC(=O)NC3CCCC3)nnc2-c2ccoc2C)c1	4.3	6	-5	13	4	8	3221
Cc1nn(CC(=O)N(C)C2CCC(C)CC2)c(C)c1S(=O)(=O)N(C)C (configuration not stated)	1.5	4	/	5	-2	-19	4010
Cc1ccc2c(c1)C(O)(CC(=O)/C=C/C=C/c1ccccc1)C(=O)N2 (configuration not stated)	9.5	-1	-5	0	6	-24	2439
O=C(COc1cccnc1[N+](=O)[O-])NCCc1ccc(F)cc1	15	5	/	3	11	-20	4786
CCOc1ccc(NS(=O)(=O)c2csc(C(N)=O)c2)cc1	4.4	15	5	4	-2	-13	2637
CCOc1ccc(N=C2SC(C(=O)O)CC(=O)N2C)cc1 (configuration not stated)	5.3	-7	2	4	16	-26	9591
CC1(c2nnc(Cc3ccccc3)o2)CC(c2ccccc2F)=NO1 (configuration not stated)	5.9	0	6	13	7	-14	3024
Cc1nn(C(=O)c2ccco2)c(C)c1Sc1ccccc1	1.1	6	0	/	/	-4	5056
Cc1ccc(OCC(=O)NN=Cc2c(C)n(C)c3ccccc23)c([N+](=O)[O-])c1	6.2	4	/	23	9	/	/
O=C(Cc1ccccc1)NCC(=O)OCc1cccc([N+](=O)[O-])c1	1.4	2	2	2	1	-20	5820
Cc1ccc(-n2[nH]c(C)c(C=NN3C(=O)c4cccc5cccc(c45)C3=O)c2=O)cc1	-5.3	-6	/	-12	-3	/	/
Cc1ccc(C(=O)C2CCN(CC(=O)NC3CCCC3)CC2)cc1	3.1	10	-7	-3	-8	4	3160
COC1=Cc2c(ccc3ccc(=O)oc23)OC1(C)C	9.3	-11	6	14	6	-25	11024
O=C(NCC(=O)N1CCN(c2ccccc2F)CC1)c1ccc(Br)o1	-3.0	1	-8	-11	0	-17	5946
COc1ccc(-n2ccc(=O)c(C(=O)O)n2)c(OC)c1	3.7	2	-13	-2	-5	-20	4001
COc1ccc2oc(C(=O)OCC(=O)N(Cc3ccccc3)C(C)(C)C)c(C)c2c1	1.7	5	7	5	-2	-18	7089
CC(=O)Nc1ccc(S(=O)(=O)NCC2CCC(C(=O)NCCC(C)C)CC2)cc1 (configuration not stated)	-17	-3	10	19	-11	-4	2537
CCOC(=O)C(CC)(CCC(=O)O)c1csc(N)n1 (configuration not stated)	2.2	11	0	8	-1	-6	6843
O=C(C1CCC(CNS(=O)(=O)c2cccc3cccnc23)CC1)N1CCCC1 (configuration not stated)	3.6	12	1	/	/	39	5460
C=CCS/C(=N\n1cnc2ccccc2c1=O)N1CCCCC1	/	/	1	/	/	4	3071
CN(CC(=O)Nc1ccccc1Cl)C(=O)c1cccc(S(=O)(=O)N2CCN(c3ccc(F)cc3)CC2)c1	0.3	-4	7	-13	-3	0	5100
Nc1c(Cl)cc(Cl)cc1C(=O)OCC(=O)NC1CC1	1.0	0	5	10	0	-13	3539
CN(C)S(=O)(=O)c1cccc(-c2nnc(SCCNCCO)n2-c2ccc(F)cc2)c1	8.1	8	-1	20	10	4	4481
CC(C)(C)Nc1cccccc1=O	0.5	11	2	/	/	-24	2931
CCOc1ccccc1NC(=O)NCc1ccccn1	6.6	16	5	2	-5	-26	5513
COc1ccc(S(=O)(=O)N2CCC(O)(c3ccc(Cl)cc3)CC2)cc1OC	1.2	-2	-9	-3	2	-32	3769
COc1cc(C)nc(Oc2ccc(C=NO)cc2)n1	-2.3	-2	/	2	9	/	/
